NOMO-1 viab: STK33 inhibitor candidate reducing NOMO-1 cell viability | NOMO-1 AML viability, CellTiter-Glo luminescence, 72 h | hit rate 7.5% among 37,000 | inhibition, % (test concentration not listed);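 active = most replicates above 80%; inconclusive = exactly half above 80%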;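 also: wells of about 30 µL received 25 nL stock; 0% = median of vehicle wells and 100% = reference inhibitor level; the first replicate is given; inactives centre near 10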
Starred values were filed as active, the others as inactive; ? = inconclusive. An excerpt, so the mix of outcomes need not match the whole.

compound | NOMO-1 viab
CN1CCN(C(=O)COc2ccc(S(=O)(=O)NC3CCCCC3)cc2Cl)CC1 | 15.2
O=c1c2ccccc2nc(CSc2ccccn2)n1-c1ccccc1Cl | 5.6
CCc1c(C(=O)OC)ncc2[nH]c3cc(OC)c(OC)cc3c12 | 30.2
Cc1cc(OC(=O)N(C)C)cc(=O)n1C | 16.9
CCCCC/C=C\C/C=C\C/C=C\C/C=C\CCCC(N)=O | 8.2
Cn1cccc1CNCCc1ccc(F)cc1 | 20.9
CC(=O)Oc1ccc(/C=C/c2cc(OC(C)=O)cc(OC(C)=O)c2)cc1 | 87.7*
CC1(C)C2CC(=O)[C@]3(C)C(CC[C@@]4(C)[C@H](c5ccoc5)OC(=O)C5OC543)[C@@]2(C)[C@@H](O)C[C@H]1O (some centres not stated) | -8.2
CO[C@@H]1[C@H](O)[C@@H](O[C@@H]2C[C@H]3CC[C@@H]4C(CC[C@]5(C)[C@@H](C6=CC(=O)OC6)CC[C@]45O)[C@@]3(C)[C@H](O)C2)O[C@H](C)[C@@H]1O[C@@H]1O[C@H](CO)[C@@H](O)[C@H](O)[C@H]1O (some centres not stated) | 119.9*
N#CC(C#N)=Cc1ccc(O)cc1 | 86.7*

Rewritten with each value named: part of the list above
O=c1c2ccccc2nc(CSc2ccccn2)n1-c1ccccc1Cl
  NOMO-1 viab: 5.6

CCc1c(C(=O)OC)ncc2[nH]c3cc(OC)c(OC)cc3c12
  NOMO-1 viab: 30.2

Cc1cc(OC(=O)N(C)C)cc(=O)n1C
  NOMO-1 viab: 16.9

(next part)
compound | NOMO-1 viab
Cc1ccc(-n2c(CNCc3cccnc3)nc3ccccc3c2=O)cc1 | 14.1
COc1cc(C)c(Oc2cc(C)cc(O)c2)c(O)c1 | -3.5
CC(C)OC(=O)Nc1cccc(Cl)c1 | -1.4
CCC12CCCN3CCC4(c5ccc(OC)c(O)c5N(C(C)=O)C4CC1)C32 (configuration not stated) | 20.3
CCN1C[C@]2(C)CC[C@H](O)[C@]34C1[C@H](C[C@H]23)[C@@]1(O)C[C@H](OC)[C@H]2C[C@@H]4[C@@H]1C2O (some centres not stated) | -9.5
COC1=CC(=O)O[C@@H](/C=C/c2ccccc2)C1 | 33.9
CCNCC(O)c1cccc(O)c1 (configuration not stated) | -9.2
CN1CCN(CC(=O)Nc2ccc(Br)cc2C(=O)c2ccccc2)CC1 | 53.0
CCN1C[C@]2(C)CC[C@H](OC)[C@@]34C1[C@@]1(OCO[C@@]15C[C@H](OC)[C@H]1C[C@]3(O)[C@@H]5[C@H]1OC)[C@@H](OC(C)=O)[C@H]24 | 11.3
CN1CCN(Cc2cc(C(C)(C)C)c(O)c(C(C)(C)C)c2)CC1 | -6.4

compound | NOMO-1 viab
CN(CC(=O)Nc1ccc(Cl)cc1C(=O)c1ccccc1)S(=O)(=O)c1ccc(Cl)cc1 | 18.0
CCC(C)/C=C(C)/C=C/C1=CC2=C(Cl)C(=O)C(C)(OC(C)=O)C(=O)C2=CO1 (configuration not stated) | 23.2
Cc1nnc2ccc(-c3cccc(C(F)(F)F)c3)nn12 | 23.2
CCC(O)CC1CCCC(CC(O)c2ccccc2)N1C (configuration not stated) | 51.4
CCCCSP(=O)(SCCCC)SCCCC | -12.0
O=C(c1ccco1)c1cn(CCCOc2ccccc2)c2ccccc12 | 31.1
CCCN[C@@H]1CCc2c(OC)cccc2[C@@H]1C | 7.9
O=C(Nc1ccc2c(C(F)(F)F)cc(=O)oc2c1)c1cc(Cl)cc(Cl)c1 | 121.7*
CO[C@H]1[C@H](O)[C@H](O[C@H]2CC[C@]3(C)C4CC[C@]5(C)[C@H](C6=CC(=O)OC6)CC[C@]5(O)C4CC[C@@H]3C2)O[C@@H](C)[C@@H]1O (some centres not stated) | 122.6*
CC(C)c1cccc(C(C)C)c1O | -6.3

Single entries from the entries so far.
Under NOMO-1 viab, `O=C(c1ccco1)c1cn(CCCOc2ccccc2)c2ccccc12` is entered as 31.1
Under NOMO-1 viab, `CO[C@H]1[C@H](O)[C@H](O[C@H]2CC[C@]3(C)C4CC[C@]5(C)[C@H](C6=CC(=O)OC6)CC[C@]5(O)C4CC[C@@H]3C2)O[C@@H](C)[C@@H]1O` (some centres not stated) is entered as 122.6*
Under NOMO-1 viab, `O=C(Nc1ccc2c(C(F)(F)F)cc(=O)oc2c1)c1cc(Cl)cc(Cl)c1` is entered as 121.7*
Under NOMO-1 viab, `CCC(C)/C=C(C)/C=C/C1=CC2=C(Cl)C(=O)C(C)(OC(C)=O)C(=O)C2=CO1` (configuration not stated) is entered as 23.2

Next part.
compound | NOMO-1 viab
COP(=S)(OC)Oc1ccc(SC)c(C)c1 | -1.8
O=C1NC(=O)C(CCc2ccncc2)(CCc2ccncc2)C(=O)N1c1ccccc1F | -6.5
COc1c(C(C)C)cc2c(c1O)[C@@]1(C(=O)O)CCCC(C)(C)C1CC2 (some centres not stated) | 16.0
CC(=O)O[C@H]1CC[C@]2(C=O)[C@H]3CC[C@]4(C)[C@@H](C5=CC(=O)OC5)CC[C@]4(O)[C@@H]3CC[C@]2(O)C1 | 123.7*
C=CCN1C(=O)/C(=C/c2cc(C)n(-c3ccccn3)c2C)C(=O)NC1=S | 111.0*
C[C@@H]1CCOC(=O)C=CC=CC(=O)O[C@@H]2C[C@H]3O[C@@H]4C=C(C(=O)O)CC[C@]4(COC(=O)[C@H]1O)[C@]2(C)[C@]31CO1 | 120.6*
COCc1cc(OC(=O)N(C)C)nc2c1c(C)nn2C | -15.9
CCCCC/C=C\C/C=C\C/C=C\C/C=C\CCCCCC(=O)NCCO | 10.8
CC1=CC(=O)C2=C(C)C[C@H](O)[C@@H]3[C@H](OC(=O)[C@H]3C)[C@H]12 | -13.0
Fc1ccc(C(OCCN2CCN(C/C=C/c3ccccc3)CC2)c2ccc(F)cc2)cc1 | 119.5*

Next part, overlapping the part above by 3 compounds.
compound | NOMO-1 viab
CCCCC/C=C\C/C=C\C/C=C\C/C=C\CCCCCC(=O)NCCO | 10.8
CC1=CC(=O)C2=C(C)C[C@H](O)[C@@H]3[C@H](OC(=O)[C@H]3C)[C@H]12 | -13.0
Fc1ccc(C(OCCN2CCN(C/C=C/c3ccccc3)CC2)c2ccc(F)cc2)cc1 | 119.5*
Nc1ccc(Br)cc1C(=O)c1ccccc1 | 46.9
Cc1cc(C(F)F)n2nc(C(=O)Nc3ccc(Cl)cc3C(=O)c3ccccc3)nc2n1 | -20.5
C=C(C)[C@@H]1[C@H]2OC(=O)[C@@H]1[C@]1(O)C[C@H]3O[C@]34C(=O)O[C@H]2[C@]14C | 19.8
Clc1cncc(N2CCNCC2)n1 | 2.3
Clc1cccc(N2CCNCC2)c1 | -18.4
C=C(C)[C@@]12O[C@@H]1[C@@]1(C)C(=C[C@H]2O)CC[C@@H](O)[C@@H]1C | 18.9
CC(=O)CC(c1ccc(Br)cc1)c1c(O)c2ccccc2oc1=O (configuration not stated) | -15.3
C=C1[C@]23C(=O)O[C@@H](C)[C@]2(O)C(=O)O[C@@]1(C)[C@H](OC(C)=O)C1=C(C)[C@@]2(C=CC(=O)OC2(C)C)CCC13C (some centres not stated) | 12.7
CC12C/C(=C\c3ccccc3)C(=O)C[C@@H]1CCC1C2CCC2(C)C1CC[C@]2(C)O (some centres not stated) | 2.5
COc1ccccc1OCCCn1cc(C(=O)c2ccccc2)c2ccccc21 | -0.1

compound | NOMO-1 viab
CCCN(CCC)C1Cc2cc(OC)c(OC)cc2C1 | 1.9
C[C@@H]([C@H](O)c1ccccc1)N(C)C | 18.9
CCC1CC2CC3(C(=O)OC)c4[nH]c5ccc(OC)cc5c4CCN(C2=O)C13 (configuration not stated) | 30.8
C/C=C(\C)[C@H](O)[C@H](C)/C=C(C)/C=C/C/C(C)=C/Cc1[nH]c(OC)c(OC)c(=O)c1C | 98.6*
CN(C)Cc1c[nH]c2ccccc12 | 16.4
CCOP(=S)(OCC)SCSP(=S)(OCC)OCC | 6.3
c1ccc2sc(C3(N4CCCCC4)CCCCC3)cc2c1 | 58.2
Cc1ccc(NC(=O)c2cc(C)n(C(C)(C)C)n2)cc1 | 5.8
c1cncc(CNCCc2c[nH]c3ccccc23)c1 | 28.2
C/C=C/[C@@H]1[C@H]2C[C@@H](C)CC[C@@H]2C(C)=C[C@H]1C(=O)c1c(O)c(-c2ccc(O)cc2)c[nH]c1=O | 52.1

compound | NOMO-1 viab
O=c1c2ccccc2nc(CSc2ncnc3ccccc23)n1-c1ccccc1F | ?
COc1cc(C2c3cc4c(cc3CC3COC(=O)C32)OCO4)cc(OC)c1OC (configuration not stated) | 118.4*
COC(=O)C1CC(=O)C[C@H]2[C@]3(C)C[C@@H](c4ccoc4)OC(=O)[C@H]3CC[C@@]12C (some centres not stated) | 0.7
COc1ccc(C(=O)O)cc1OC | -3.1
C=C1CC[C@]2(O)[C@]3(C)C[C@@]4(O)O[C@@]2([C@@H]1O)[C@]1(O)[C@@]3(O)[C@H]([C@H](OO)c2ccc[nH]2)[C@](C)(C(C)C)[C@@]14C | -4.6
COC(=O)c1cc2c(cn1)[nH]c1ccccc12 | 40.8
CC1(C)C(C(=O)NN2C(=O)c3ccccc3C2=O)C1(C)C | 7.5
CCCN(CCC)C1CCc2cccc(O)c2C1 (configuration not stated) | 4.6
Oc1ccc2c3c1O[C@H]1[C@@H](O)CC[C@@]4(O)[C@@H](C2)N(CC2CCC2)CC[C@]314 | 15.3
C/C=C1/C[N+]2(C)CCC34C(=C(C=O)[C@H]1C[C@@H]32)Nc1ccccc14 (some centres not stated) | 15.7

Source: PubChem
